Assay outcomes: PubChem BioAssay, National Center for Advancing Translational Sciences (NCATS)
CtBP-E1A inh = qHTS Assay for Inhibitors of the CtBP/E1A Interaction. AlphaScreen GST-E1A/His-CtBP binding, 1536-well; hits give low values; control for the full effect not named in the record. activity change, % (test concentration not listed). 0.49% of 340,000 active. CtBP / adenovirus E1A interaction (AlphaScreen). AID 651724, 2012; in the data active means activity change below about -65%; inconclusive means about -30% to -65%; inactive means above about -30%; further: on the % scale 0 is the no-effect control and ±100 the full control effect; compound concentration not given in the record
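AlphaScreen with 125 nM GST-E1A and 125 nM His-CtBP (5X stocks) in Tris pH 8.0, 300 mM NaCl, BSA, Tween 20, TCEP. Compounds preincubated 2 h at 37 deg C, then glutathione donor/nickel acceptor beads added for 1 h at 37 deg C in dark.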
D2 agonist = Beta-Arrestin HTS for Positive Allosteric Modulators of the Human D2 Dopamine Receptor: Agonists; activation, % (concentration not given with the values); DiscoveRx PathHunter D2 beta-arrestin, luminescence, 90 min; 100% = 57 uM dopamine signal; 0.084% of 360,000 active; in the data active = activation above about 40%; inconclusive = about 15% to 40%; inactive = below about 15%; further: compound concentration not given in the record; the text of the record calls up to 30% inactive
Target sequence (P14416 whole entry, looked up): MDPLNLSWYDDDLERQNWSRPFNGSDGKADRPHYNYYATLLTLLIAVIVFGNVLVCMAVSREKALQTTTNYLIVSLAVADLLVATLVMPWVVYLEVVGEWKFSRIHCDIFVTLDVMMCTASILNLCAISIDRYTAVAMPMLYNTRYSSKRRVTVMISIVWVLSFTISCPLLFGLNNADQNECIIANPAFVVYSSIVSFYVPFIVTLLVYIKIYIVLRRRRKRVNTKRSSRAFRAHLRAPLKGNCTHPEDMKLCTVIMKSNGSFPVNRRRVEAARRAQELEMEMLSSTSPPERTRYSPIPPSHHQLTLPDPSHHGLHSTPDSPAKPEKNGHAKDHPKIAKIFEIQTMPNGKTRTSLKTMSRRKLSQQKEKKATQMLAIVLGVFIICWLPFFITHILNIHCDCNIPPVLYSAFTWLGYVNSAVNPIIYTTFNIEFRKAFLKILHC
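Agonist mode: compounds alone added to overnight-plated D2 PathHunter cells for 90 min at 37 C, with 57 uM final dopamine (EC100) defining full response. Beta-arrestin recruitment detected by chemiluminescent reagent, read after 1 h at ambient temperature.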
gsp ag = qHTS for Agonist of gsp, the Etiologic Mutation Responsible for Fibrous Dysplasia/McCune-Albright Syndrome: qHTS. gsp mutant cells, cAMP HTRF, 30 min; control for the full effect not named in the record. Potency, µM (highest dose often 76.9 µM), for the others: at the highest dose activation (cAMP increase), actives largely listed as activators. 0.13% of 340,000 active. AID 624287, 2012; active = well fitted activation curve with a large enough effect; inconclusive = small, poorly fitted or top-dose-only effect, or another doubt; inactive = no such curve, though single readings can be large or run the other way; cell line not stated here;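 further: phosphodiesterase inhibitor Ro 20-1724 added with compounds to block cAMP breakdown; potency means the concentration at half of the fitted maximal effect; nearly all actives have a fitted effect of over 60% in size; about a fifth of the inactives were tested at one dose only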
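Cells stably selected in G418 were plated at 2000/well, grown 16-24 hr, then given compounds in DMSO with the PDE inhibitor […] (300 uM solution added) for 30 min at 37C; cAMP was read by HTRF.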
D2 potentiator = Beta-Arrestin HTS for Positive Allosteric Modulators of the Human D2 Dopamine Receptor: Potentiators; DiscoveRx D2 beta-arrestin cells, luminescence, 90 min; 100% = 57 uM dopamine signal; potentiation, % (test concentration not listed); 0.23% of 360,000 active; AID 624464, 2012; active = potentiation of 50% or more; inconclusive = 30% to 50%; inactive = 30% or less;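 further: compound concentration not given in the record; tested on top of an EC20 dose of dopamine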
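PathHunter D2 cells, attached overnight at 37 deg C, received compound in DMSO plus dopamine at EC20 (50 nM final) for 90 min at 37 deg C. Beta-arrestin recruitment was read as luminescence after 1 h with detection reagent at ambient temperature.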
gsp antag = qHTS for Antagonists of gsp, the Etiologic Mutation Responsible for Fibrous Dysplasia/McCune-Albright Syndrome: qHTS; gsp-mutant cells, cAMP HTRF, 30 min; control for the full effect not named in the record; Potency, µM (highest dose often 76.9 µM), for the others: at the highest dose activity change, negative = inhibition, hits mostly inhibitors; 0.4% of 340,000 active; AID 624288, 2012; active = falling curve of any shape with a large fitted effect; inconclusive = falling curve, mostly with a smaller effect; inactive = flat or rising curve; cell line not stated here;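 further: intracellular cAMP measured with PDE inhibitor Ro 20-1724 present during compound exposure; potency means the concentration at half of the fitted maximal effect; on the % scale 0 is the no-effect control and ±100 the full control effect; nearly all actives have a fitted effect of over 65% in size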
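HTRF cAMP read-out (cAMP-d2 plus anti-cAMP antibody-K in lysis buffer, 30 min RT). Before lysis, cells are exposed to compounds with […] for 30 min at 37C in DPBS containing Ca/Mg, BSA and Tween 20.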
Six1-Eya2 inh = qHTS Assay for Inhibitors of the Six1/Eya2 Interaction; AlphaScreen GST-Six1/His-Eya2 binding, biochemical; hits give low values; control for the full effect not named in the record; 0.56% of 360,000 active; activity change, % (test concentration not listed); in the data active = activity change below about -65%; inconclusive = about -30% to -65%; inactive = above about -30%; further: on the % scale 0 is the no-effect control and ±100 the full control effect; compound concentration not given in the record
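GST-Six1 + His-Eya2 (5X stock: 250/500 nM); Tris pH 8.0, 300 mM NaCl, 0.05% BSA, 0.02% Tween 20; GSH donor/Ni acceptor beads; 1 h 37 °C dark; AlphaScreen readout.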
An asterisk follows results filed as active; ? = inconclusive; · = no result given; [ ] = another dose, or the depositor's remark. Rows are unselected, and some 1.4% of all compounds hit somewhere here.

A first look (two entries):
CtBP-E1A inh	D2 agonist	gsp ag	D2 potentiator	gsp antag	Six1-Eya2 inh	molecule
0.0	-1.8	-3.1%	-3.2	-10.3%	-1.0	CCc1ccc(NC(=O)CC2C(=O)N(c3cccc(C)c3)C(=O)N2C2CC2)cc1 (stereo not given)
-1.6	0.7	0.7%	5.3	-2.8%	-13.4	CCOc1ccc(CCNC(=O)c2sc3nc4n(c(=O)c3c2C)CCC4)cc1OCC

This part in full, repeating the preview:
CtBP-E1A inh	D2 agonist	gsp ag	D2 potentiator	gsp antag	Six1-Eya2 inh	molecule
0.0	-1.8	-3.1%	-3.2	-10.3%	-1.0	CCc1ccc(NC(=O)CC2C(=O)N(c3cccc(C)c3)C(=O)N2C2CC2)cc1 (stereo not given)
-1.6	0.7	0.7%	5.3	-2.8%	-13.4	CCOc1ccc(CCNC(=O)c2sc3nc4n(c(=O)c3c2C)CCC4)cc1OCC
-8.1	5.1	·	-2.9	·	-10.8	CCCn1cnnc1CNC(=O)[C@H]1O[C@@H](n2ccc(=O)[nH]c2=O)[C@H](O)[C@@H]1O
-0.1	-1.1	51.7%	-0.4	4.8%	2.3	N#CC1=C(N)SC(N)=C(C#N)C1Cc1ccccc1
5.8	-2.9	16.3%	-18.1	8.6%	11.3	O=C(c1ccccc1NS(=O)(=O)c1ccccc1[N+](=O)[O-])N1CCOCC1
-10.2	-1.9	2.0%[15.4 µM]	-12.0	12.3%	-12.2	CCN(CC)CCCNC(=O)c1cc2nc3c(c(C(F)(F)F)n2n1)CCc1ccccc1-3
·	-7.3	24.8%	-7.6	-4.7%	7.2	CCNC(=O)Nc1ccc(OC)cc1OC
3.6	2.3	-8.4%	-11.9	5.8%	-2.2	CC1CCCCC1NC(=O)c1ccc(S(=O)(=O)N2CCCC2)cc1 (stereo not given)
5.8	-5.7	·	-3.6	·	0.4	COC(=O)C1=C(C(=O)OC)C(C(=O)OC)N2C=CC=CC2=C1C(=O)OC (stereo not given)
-2.8	-2.9	-10.6%	6.2	-14.6%	-8.1	COc1ccc2cc(CN(CC3CCCO3)S(=O)(=O)c3ccccc3)c(=O)[nH]c2c1 (stereo not given)
5.7	2.5	?	-0.6	10.6%	4.1	CC(C)(C)C1CCC(OC(=O)c2cncc(Br)c2)CC1 (stereo not given)
-10.2	3.0	5.1%	-8.9	-7.1%	-24.2	O=P(c1ccccc1)(c1ccccc1)c1cc(Br)cc(Br)c1OCCO
-10.0	-2.1	3.4%	-31.9	-15.8%	-14.9	CCCCCCSc1nnc(-c2cnn(-c3ccccc3)c2-n2cccc2)n1C
6.1	5.6	-2.7%	-5.3	-17.7%	-1.9	CC1(C)CC(=O)C(C(N)=NC(=O)c2ccccc2)=C(O)C1
·	-1.7	-22.4%	-7.7	-10.3%	4.2	CN(C)S(=O)(=O)c1ccc(C(=O)Nc2ccccc2SCCC#N)cc1

The list goes on:
CtBP-E1A inh	D2 agonist	gsp ag	D2 potentiator	gsp antag	Six1-Eya2 inh	molecule
-0.3	-1.6	-11.6%	10.3	4.7%	4.6	Cc1nn(C)cc1CNC(=O)C1CCC(=O)N(Cc2cccc(C(F)(F)F)c2)C1 (stereo not given)
·	-1.3	-43.4%[inhibitor]	-2.8	-4.9%	3.7	CC(C)(C)NC(=O)CN(C(=O)CS(=O)CC(=O)Nc1ccc(F)cc1)c1ccc2c(c1)OCCO2 (stereo not given)
0.5	0.1	-0.6%	0.9	-4.7%	0.4	Cc1nc2sc(C(c3cccs3)N3CCC4(CC3)OCCO4)c(O)n2n1 (stereo not given)
-25.0	-2.7	·	·	-0.8%	-12.4	Cc1ccc(S(=O)(=O)N2C[C@@H]3[C@H]4CC[C@H](C4)[C@@H]3[C@@H](C)[C@@H]2c2cccn2Cc2ccccc2)cc1
0.0	-1.7	-0.9%	-3.1	10.6%	6.0	COc1ccc(C2C(C(=O)c3ccco3)=C(O)C(=O)N2CCN2CCOCC2)cc1 (stereo not given)
-21.4	-0.8	-26.5%	14.2	-19.2%	?	CC(=O)c1cc(-c2ccccc2)n(CCC(=O)NC2CCCCCCC2)c1C
2.2	-1.2	6.5%	-16.1	-11.5%	4.5	O=C1c2ccccc2NC(c2ccccc2)N1/N=C/c1ccccc1 (stereo not given)
2.4	-1.3	-4.7%	-3.2	6.8%	4.3	CCc1noc(C)c1C(=O)NCCc1ccc(OC)c(OC)c1
1.5	0.4	-31.7%[15.4 µM]	-5.9	15.2%	5.4	O=C1Nc2ccccc2C1(O)Cc1ccccn1 (stereo not given)
0.0	-2.4	5.5%[15.4 µM]	-14.2	8.9%	6.1	C=CCn1c(N)cc(=O)nc1SC(C)C(=O)Nc1ccc(C(=O)OCC)cc1 (stereo not given)
0.0	1.6	·	·	8.5%	24.8	CC(C)(C)S(=O)N1Cc2cc(=O)n(Cc3ccccc3)cc2[C@@H]1CCO (stereo not given in full)
0.6	-2.2	17.0%	24.1	9.6%	0.7	Cc1ccc(-c2noc(-c3cc4ccccc4oc3=O)n2)cc1
-16.5	5.0	-7.2%	16.8	7.5%	-16.6	COc1ccc(C(=O)NC(=O)CSc2nnc(-c3ccco3)n2-c2ccccc2)cc1
-7.6	0.5	1.5%[15.4 µM]	-10.6	4.0%	-6.4	O=C(Nc1ccc([N+](=O)[O-])cc1)NN1CCCCCC1
2.8	-1.8	10.6%	-18.4	-8.7%	6.6	COc1ccc(NC(=S)N2CCN(CCN=CC3=C(O)CC(c4ccccc4)CC3=O)CC2)cc1 (stereo not given)

Brought forward from above: 3 entries; new compounds follow.
CtBP-E1A inh	D2 agonist	gsp ag	D2 potentiator	gsp antag	Six1-Eya2 inh	molecule
-16.5	5.0	-7.2%	16.8	7.5%	-16.6	COc1ccc(C(=O)NC(=O)CSc2nnc(-c3ccco3)n2-c2ccccc2)cc1
-7.6	0.5	1.5%[15.4 µM]	-10.6	4.0%	-6.4	O=C(Nc1ccc([N+](=O)[O-])cc1)NN1CCCCCC1
2.8	-1.8	10.6%	-18.4	-8.7%	6.6	COc1ccc(NC(=S)N2CCN(CCN=CC3=C(O)CC(c4ccccc4)CC3=O)CC2)cc1 (stereo not given)
-9.7	-7.0	-30.6%[inhibitor]	-21.1	-8.2%	-11.9	COc1cc(/C=C2/SC(=NCc3ccccc3)N(Cc3ccccc3)C2=O)ccc1O
·	-3.5	-9.0%	-33.1	-17.9%	-5.6	O=C(N/N=C/C(Cl)=C/c1ccccc1)c1ccc2c(c1)OCO2
-4.3	-5.0	3.6%	-3.2	-4.8%	6.0	O=c1cc(N2CCc3ccccc32)[nH]c(=O)n1-c1ccccc1Cl
-0.6	11.5	-70.3%[15.4 µM]	-60.4	13.6%	0.5	O=C(COC(=O)c1cccc(Br)c1)NC(=O)NC1CCCC1
5.8	-3.0	11.6%[15.4 µM]	-2.4	-2.7%	-16.1	O=C(O)CCC(=O)NCC(=O)c1ccc(F)cc1
0.0	4.6	-9.8%[15.4 µM]	-6.0	-1.7%	23.7	Clc1ccc(CNc2cnccn2)cc1Cl
-21.2	5.7	-85.2%[inhibitor]	?	-22.9%	-19.4	Nc1ccc2c(c1)-c1ccccc1S(=O)(=O)N2
-13.2	-2.8	?	-8.8	12.8%	5.4	COc1ccc(-c2c(NC(C)=O)n(C)c3ccccc3c2=O)cc1
·	-3.4	7.0%	-11.4	-3.9%	1.7	NS(=O)(=O)c1cccc(NC(=O)COC(=O)Cc2n[nH]c(=O)c3ccccc23)c1
-2.1	5.7	?	-16.8	-11.3%	3.1	COC(=O)C(C)NC(=O)C12CC3CC(C1)CC(c1ccc(C)cc1)(C3)C2 (stereo not given)
-3.6	-4.6	?	-6.8	1.1%	3.6	CCN(CC)CCn1c(SCC(=O)NCCC2=CCCCC2)nc2c(sc3ccccc32)c1=O
-7.5	1.3	-16.8%	-13.7	-6.9%	-6.3	COc1ccc(NC(=O)C(Sc2nnc3ccccn23)c2ccccc2)cc1Cl (stereo not given)
5.3	-4.2	-35.3%[inhibitor]	8.0	-17.4%	4.2	c1ccc(Cc2nn[nH]n2)cc1
1.3	1.8	-49.6%[inhibitor]	1.6	1.3%	0.0	CN(CC(=O)Nc1cccc(Cl)c1)S(=O)(=O)c1ccc2[nH]c(=O)oc2c1
-1.1	-2.7	0.8%[15.4 µM]	-8.5	11.4%	-1.4	O=C(CSc1nccn1-c1ccccc1)NCc1ccc(F)cc1

Carrying on.
CtBP-E1A inh	D2 agonist	gsp ag	D2 potentiator	gsp antag	Six1-Eya2 inh	molecule
-4.0	2.9	8.0%	-19.8	-22.4%	-0.5	Cc1scc(C(=O)N/N=C/c2ccc(OC(C)C)cc2)c1C
2.6	-0.5	-29.2%	4.3	12.2%	9.5	C=C(C)CSc1nc2ccccc2[nH]1
9.8	5.1	·	-22.0	·	5.5	CC1(Oc2ccc(F)cc2)CCN(Cc2ccccc2OC(F)F)C1 (stereo not given)
·	-5.8	11.8%	11.6	2.8%	5.9	CCOc1cc(N2CCOCC2)c(OCC)cc1NC(=O)c1ccc(S(=O)(=O)N(C)C)cc1
7.2	1.6	-4.0%	-7.8	10.7%	6.4	Cc1cccc(C)c1NC(=O)CN(C)C(=O)CSC(=S)N1CCCC1
6.2	0.2	8.2%	0.2	15.5%	-0.1	CCOc1cc(C=O)ccc1OCCCN1C(=O)NC(C)(C)C1=O
4.7	6.5	1.1%	-2.0	-17.2%	2.3	CCCN(CC(=O)Nc1ccccc1OC)C(=O)CCC(=O)c1ccc(Cl)s1
8.4	-4.1	-4.4%[15.4 µM]	-5.3	-9.9%	12.0	Cc1ccc(/C=C/c2nc3ccccc3[nH]2)o1
1.6	1.3	0.1%	-2.9	2.0%	3.4	O=C(NCCCl)Nc1cccnc1Cl
·	-1.1	21.4%	4.5	-7.7%	-2.0	COc1ccc(CNC(=O)CCCCCNC(=O)N2CCn3c2nc2ccccc23)cc1
5.6	-0.2	6.4%[15.4 µM]	-7.4	-21.7%	0.2	CCN1CCN(CC(=O)N2N=C(c3cccs3)CC2c2ccc(OC)cc2)C(=O)C1=O (stereo not given)
·	-3.8	20.5%	-5.2	11.1%	0.4	Cc1ccc2c(c1)NC(=O)C(CC(=O)Nc1ccc(Br)c(C)c1)O2 (stereo not given)
4.1	1.1	?	0.3	25.8%	3.6	O=C(CCCn1c(=S)[nH]c2cc3c(cc2c1=O)OCO3)NCCc1ccccc1Cl
-0.1	0.9	10.4%[15.4 µM]	1.4	4.8%	-6.3	O=S(=O)(N1CCCCCC1)N1CCNCC1
-1.0	-1.0	3.9%	-4.0	-2.5%	8.9	Cc1cccc(C)c1NC(=O)CNC(=O)C(Cc1ccccc1)NC(=O)c1ccccc1 (stereo not given)
